PrP 5UTR inh: suppresses PrP 5' UTR mRNA reporter expression | cell-based PrP 5' UTR mRNA reporter, plate reader | inhibition, % (test concentration not listed) | 0.35% of 340,000 active;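 active = every replicate at 50% or more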;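 note: 0 = median of the neutral control wells; tested in H4 reporter cells; numbers are from one replicate; inactives centre near -14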
Mtb hypoxia inh: reduces hypoxia-regulated biosensor signal in M. tuberculosis; fluorescence inhibition, % (test concentration not listed); M. tuberculosis hypoxia-regulated fluorescent reporter, fluorescence; 0.1% of 300,000 active;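 active = 35 to 45% if threefold the growth effect, above 45% if 1.5-fold the growth effect; inactive = the rest, general growth blockers included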;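 note: wells of about 50 µL received 100 nL stock; 0% = vehicle wells and 100% = reference inhibitor wells; whole bacteria with a GFP reporter of the hypoxia response; strong numbers were not always called active; many hits fall short of the cut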
Sa ugtP lethal: growth inhibition of S. aureus ugtP deletion strain; growth inhibition, % (concentration not given with the values); S. aureus RN4220 ugtP deletion, OD600 growth, 16 h; some inactives read as strong as hits; 0.54% of 330,000 active;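 active = z-score under -3 and OD600 up to 0.15 on both plates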;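 note: plate controls were untreated wells for no effect and antibiotic for full effect; wells of about 80 µL received 100 nL stock; the first replicate is given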
Sa RN4220 lethal: kills Staphylococcus aureus RN4220; 0.33% of 330,000 active; AID 1259311; S. aureus RN4220 growth, OD600, 16 h; inhibition, % (no concentration beside the values);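 active = z-score of -3 or lower and OD600 up to 0.18 on both plates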;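 note: plate controls were untreated cells for no effect and reference antibiotic for full effect; stock transfer was 100 nL into about 80 µL; one replicate is shown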
Autofluor counter: compound fluorescence in toxin protease inhibitor counterscreen. compound autofluorescence counterscreen, microsphere flow cytometry; active compounds read high. fluorescence intensity (concentration not given with the values). 3.1% of 360,000 active. AID 624483;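 active = at least 3 SD above the mean of all compounds, about 16000 in these data; inconclusive = too few beads counted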;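 note: 100 nL of 1 mM stock went into each well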
BJeLR viability: BJeLR cell viability loss; BJeLR (HRASV12) viability, CellTiter-Glo ATP luminescence, 48 h; reference of the scale not given here; inhibition, % (concentration not given with the values); 0.17% of 300,000 active;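 active = replicate mean above 50%; inconclusive = above 50% but judged a plate artefact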;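 note: 50 nL library stock added to about 25 µL; numbers are from one replicate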
Mtb hypoxia inh growth: also measured in Mtb hypoxia inh; calls as there; growth inhibition, %; measured here: M. tuberculosis growth (absorbance);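 0% = vehicle and 100% = reference antibiotic; read after six days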
* = called active by the depositor; ? = inconclusive; . = not tested or not shown. An unsorted share of the library. Share with any hit: about 4%.

smiles | PrP 5UTR inh | Mtb hypoxia inh | Mtb hypoxia inh growth | Sa ugtP lethal | Sa RN4220 lethal | Autofluor counter | BJeLR viability
CCOC(=O)c1cc2c(cn1)[C@@H](CCO)NC2 | -1 | -4 | 4 | -1 | -1.4 | 3171 | .
NC(=O)C1CCN(C(=O)C2(NC(=O)Nc3cccc(F)c3)CCCCC2)CC1 | -20 | 1 | -2 | -8 | 1.9 | 3663 | -8
C=CCCN(C1CCCC1)S(=O)(=O)c1ccccc1Br | -3 | 19 | 4 | 12 | 5.8 | 3936 | 1
CC(C)N(CCc1ccncc1)C(=S)Nc1cccc(Cl)c1 | -10 | 1 | 1 | 5 | 5.4 | 4499 | -2
C=CC1c2ccccc2N(S(=O)(=O)c2ccc(C)cc2)C(c2ccc(OC(C)=O)cc2)C1(C#N)C#N (stereo not drawn) | . | 21 | 8 | 33 | 20 | . | .
COC(=O)COc1ccc(S(=O)(=O)Nc2ccc(NC(C)=O)cc2)cc1 | -24 | 11 | 8 | 7 | 6.5 | 7443 | -3
COc1ccc2c(c1)C(=O)N(c1ccccc1OC)C(=O)C2 | -12 | 4 | -3 | 9 | 1.9 | 10218 | 0
Cc1cc(NS(=O)(=O)c2ccc(NC(=O)N[C@H](C(=O)O)C(C)C)cc2)no1 | -18 | 7 | 11 | 2 | 0.4 | 5616 | 3
O=c1ccccn1CCOc1ccccc1Cl | -30 | 3 | 3 | 13 | 1.4 | 2016 | -8
CCc1ccc(NCc2nc(-c3ccccc3)no2)cc1 | -30 | 1 | 10 | 55 | 8.3 | 10365 | -3
COCCCN(C(=O)c1cc(C)oc1C)c1c(N)n(CC(C)C)c(=O)[nH]c1=O | 2 | -2 | 6 | 2 | 0.9 | 3648 | .
O=C(NCCCN1CCOCC1)c1cccs1 | -43 | 14 | 2 | 0 | 2.5 | 19558* | .
CC(C)CNC(=S)NNC(=O)c1ccc(OC(F)F)cc1 | -5 | 18 | 11 | 1 | 6.3 | 23366* | -2
Cc1ccccc1NC(=O)NCCCN1CCCC1=O | -1 | 2 | 0 | 4 | 4.1 | 6814 | 2
CCCn1nnc(NC(=O)c2cccnc2Cl)n1 | -2 | . | . | 3 | 4.2 | 3285 | 2

(continued)
smiles | PrP 5UTR inh | Mtb hypoxia inh | Mtb hypoxia inh growth | Sa ugtP lethal | Sa RN4220 lethal | Autofluor counter | BJeLR viability
O=C(Nc1nnc(S(=O)(=O)N2CCN(c3ccc(F)cc3)CC2)s1)c1ccccc1 | -38 | . | . | . | . | 4833 | 8
CCNc1nc(NC(N)=S)nc(NC(C)(C)C)n1 | -4 | -3 | -2 | -6 | -1.5 | 4687 | 0
CCOc1ccc(S(=O)(=O)N2CCN(c3ncccn3)CC2)cc1 | -15 | 3 | 15 | -2 | 2.9 | 3784 | 0
O=S(=O)(c1cccc(C(F)(F)F)c1)N1CCC(c2cc(-c3cccc4ccccc34)n[nH]2)CC1 | -31 | 4 | 1 | -6 | 6.5 | 4391 | 6
Nc1ccc(S(=O)C(F)(F)F)cc1 (stereo not drawn) | -24 | 15 | 0 | 4 | 4.0 | 2561 | -15
COC(=O)c1ccc(CNC(=O)COC(=O)c2cc(Cl)nc(Cl)c2)cc1 | -11 | 16 | 13 | 2 | 6.8 | 3335 | 9
CC(C)Cc1ccc(S(=O)(=O)Nc2ccc3[nH]c(=O)[nH]c3c2)cc1 | -16 | 0 | 5 | -4 | 1.5 | 3798 | -2
Cc1ccc(C(=O)NC(=S)N2CCN(C)CC2)cc1Br | -18 | 10 | 4 | 3 | 3.4 | 4957 | -8
CC1CCCCC1NC(=O)CN(C)S(=O)(=O)c1cccc2cccnc12 (stereo not drawn) | -25 | -6 | 8 | 6 | 9.0 | 4588 | -7
COc1ccc(OC)c(NC(=O)Nc2ccc(O)c3ccccc23)c1 | -19 | -1 | -2 | -9 | 7.2 | 3180 | 2
COc1ccc(-c2ccnc(-c3ccncc3)n2)cc1 | -19 | -6 | 2 | -7 | 8.3 | 3716 | 27
COc1cc(CNc2ccc(S(N)(=O)=O)cc2)ccc1OCC(=O)NC1CCCCC1 | 0 | -3 | 2 | 0 | 2.8 | 3620 | -7
CCOC(=O)C(=O)NNc1ccc(F)cc1 | . | 19 | 11 | 3 | 1.3 | 4501 | 7
CCOC(=O)C1=C(COC(=O)Cc2c(F)cccc2Cl)NC(=O)NC1C (stereo not drawn) | -8 | 4 | 2 | -3 | 13 | 3123 | .
Cc1occc1C(=O)NC1CCCCCCC1 | -50 | 17 | 17 | 14 | 2.9 | 9139 | 19

Going on with the list:
smiles | PrP 5UTR inh | Mtb hypoxia inh | Mtb hypoxia inh growth | Sa ugtP lethal | Sa RN4220 lethal | Autofluor counter | BJeLR viability
COc1ccc(N2C(=O)CCC(C(=O)N(C)C3CCCCC3)C2c2ccc(OC)c(OC)c2)cc1 (stereo not drawn) | . | 11 | 10 | 3 | 3.2 | . | .
COc1ccccc1/C=C1\SC(=S)N(CCC(=O)Nc2ccc(C(=O)O)c(O)c2)C1=O | -4 | . | . | -3 | -2.9 | 3758 | 5
Clc1ccc(-c2nnc3n2CCCC3)cc1Cl | -17 | 9 | 6 | 5 | 2.9 | 4198 | -18
COc1ccc(-n2c(SCC(=O)Nc3nccs3)nc3c(c2=O)SCC3)cc1 | -12 | 9 | 6 | 8 | -0.2 | 5208 | 0
COc1ccccc1N1CCN(C(=S)Nc2cccc(C)c2)CC1 | -15 | 7 | 6 | 2 | -0.7 | 2517 | -3
O=C(c1cccc(Cl)c1)N1CCC(=O)N(C(CO)Cc2ccccc2)CC1 (stereo not drawn) | -3 | 11 | 11 | -10 | 2.5 | 4186 | 0
CC(=NNC(=O)c1sc(=S)n(C)c1C)c1ccccc1 | . | 6 | 3 | -1 | 1.1 | . | .
COc1ccc(N2CCCC2)c(NC(=O)c2ccc(Br)o2)c1 | -31 | 16 | 4 | -10 | 10 | 4184 | -6
Clc1cccc(Cl)c1-c1noc(-c2ccno2)n1 | -14 | -1 | 13 | 0 | 0.5 | . | -7
CCCCCCCCCCCCOC(=O)C[N+](C)(C)C | . | 3 | -8 | 18 | 0.9 | . | 3
O=C(Nc1ccc(Cl)cc1)NC1CCCc2ccccc21 (stereo not drawn) | -54 | . | . | -9 | -5.0 | 2769 | 0
Cc1ccc(S(=O)(=O)N2CCCCC2)cc1NC(=O)Cn1c(=O)cnc2ccccc21 | -10 | 7 | -1 | 2 | 1.5 | 2805 | -6
Cc1ccccc1NC(=O)CSc1nnc(Cc2ccccc2)c(=O)n1N | -11 | -9 | 3 | -2 | -3.9 | 5884 | 9
COc1cccc(C(=O)Nc2ccccc2-c2ccccc2)c1 | -19 | 13 | 12 | 2 | 5.1 | 3381 | .
c1cnc(N2CCN(c3cnccn3)CC2)nc1 | -1 | -4 | 4 | 1 | 4.0 | 4387 | 3

Next section
smiles | PrP 5UTR inh | Mtb hypoxia inh | Mtb hypoxia inh growth | Sa ugtP lethal | Sa RN4220 lethal | Autofluor counter | BJeLR viability
COC(=O)CC1C(=O)NCCN1C(=O)c1ccc(Cl)cc1 (stereo not drawn) | -7 | 2 | -1 | 5 | 3.4 | 4505 | 1
Fc1ccc2nc(N3CCOCC3)sc2c1 | -29 | 15 | 9 | 9 | 5.4 | 3258 | 3
COc1ccccc1OCC(=O)NCC1CCCN(C(=O)c2ccccc2SC)C1 (stereo not drawn) | -29 | -6 | -6 | -5 | 4.2 | 6279 | 2
CCN(CC)CCCN1C(=O)C(=O)/C(=C(/O)c2c(C)nc3ccccn23)C1c1ccc(C)o1 (stereo not drawn) | -16 | 3 | 17 | 18 | 5.6 | 3478 | .
CC(C)(C)C(=O)Nc1cccc(-c2cc(-c3c(Cl)cccc3Cl)no2)c1 | -23 | -5 | 7 | -9 | -2.5 | . | 0
COc1ccc2[nH]c3c(=O)n(CCc4ccccc4)cnc3c2c1 | -12 | 12 | 10 | 1 | -0.8 | 4271 | -5
O=C(CN1CCCC1)Nc1ccc(NC(=O)Nc2ccccc2Cl)cc1 | -60 | -7 | 14 | -7 | -13 | 3441 | -3
COc1ccc(C(=O)N/N=C(/C)c2ccc(N3CCCCC3)cc2)cc1 | -17 | . | . | . | . | 2846 | 0
N#Cc1c(N2CCCC(O)C2)nc(N)c2c(N)nc3c(c12)CC(=O)N3C12CC3CC(CC(C3)C1)C2 (stereo not drawn) | 6 | 9 | 7 | -18 | 2.0 | 3513 | 2
C=CCNc1nc(C(=O)OCC(=O)c2ccc(C)c([N+](=O)[O-])c2)cs1 | -29 | 3 | 6 | 7 | 1.4 | 5772 | 7
O=C1CCC2(CC1)NC(=O)N(c1ccccc1)N2 | -15 | 12 | 9 | 10 | 6.7 | 3553 | 3
CCCN(CC(=O)Nc1ccccc1C)C(=O)c1ccc(=O)n(Cc2ccccc2)n1 | 1 | . | . | . | . | 5701 | -1
CC(=O)Nc1ccc(OC(=O)c2cccs2)cc1 | -9 | -3 | -11 | -1 | -3.4 | 16646* | 1
CCN(CC(=O)Nc1c(F)cccc1F)C(=O)c1cc2c(cc1Cl)N1CCCCCC1=NS2(=O)=O | -19 | 7 | 8 | 7 | 2.6 | ? | -3
Cc1ccc(C)c(Cn2nnc3c(=O)[nH]c(C4CCCN(C(=O)C5CCCCC5)C4)nc32)c1 (stereo not drawn) | 5 | 1 | -1 | -7 | 2.4 | 10795 | -4

A section from the list above:
smiles | PrP 5UTR inh | Mtb hypoxia inh | Mtb hypoxia inh growth | Sa ugtP lethal | Sa RN4220 lethal | Autofluor counter | BJeLR viability
COc1ccc2[nH]c3c(=O)n(CCc4ccccc4)cnc3c2c1 | -12 | 12 | 10 | 1 | -0.8 | 4271 | -5
O=C(CN1CCCC1)Nc1ccc(NC(=O)Nc2ccccc2Cl)cc1 | -60 | -7 | 14 | -7 | -13 | 3441 | -3
COc1ccc(C(=O)N/N=C(/C)c2ccc(N3CCCCC3)cc2)cc1 | -17 | . | . | . | . | 2846 | 0
N#Cc1c(N2CCCC(O)C2)nc(N)c2c(N)nc3c(c12)CC(=O)N3C12CC3CC(CC(C3)C1)C2 (stereo not drawn) | 6 | 9 | 7 | -18 | 2.0 | 3513 | 2
C=CCNc1nc(C(=O)OCC(=O)c2ccc(C)c([N+](=O)[O-])c2)cs1 | -29 | 3 | 6 | 7 | 1.4 | 5772 | 7
O=C1CCC2(CC1)NC(=O)N(c1ccccc1)N2 | -15 | 12 | 9 | 10 | 6.7 | 3553 | 3
CCCN(CC(=O)Nc1ccccc1C)C(=O)c1ccc(=O)n(Cc2ccccc2)n1 | 1 | . | . | . | . | 5701 | -1
CC(=O)Nc1ccc(OC(=O)c2cccs2)cc1 | -9 | -3 | -11 | -1 | -3.4 | 16646* | 1
CCN(CC(=O)Nc1c(F)cccc1F)C(=O)c1cc2c(cc1Cl)N1CCCCCC1=NS2(=O)=O | -19 | 7 | 8 | 7 | 2.6 | ? | -3
Cc1ccc(C)c(Cn2nnc3c(=O)[nH]c(C4CCCN(C(=O)C5CCCCC5)C4)nc32)c1 (stereo not drawn) | 5 | 1 | -1 | -7 | 2.4 | 10795 | -4

Remaining list, next part:
smiles | PrP 5UTR inh | Mtb hypoxia inh | Mtb hypoxia inh growth | Sa ugtP lethal | Sa RN4220 lethal | Autofluor counter | BJeLR viability
CCC1(CC)Cc2ccccc2-c2nc(NCCO)[nH]c(=O)c21 | 3 | 3 | 7 | -4 | 3.2 | 20997* | 11
COC(=O)C1=C(C)NC(=O)CC1c1ccc(F)c(Br)c1 (stereo not drawn) | -13 | 9 | -2 | -1 | 2.1 | 23452* | -13
c1coc(CNc2c3c(nc4ccccc24)CCC3)c1 | -12 | 19 | 11 | 3 | 2.8 | 4796 | 3
C=CCOc1ccc(/C=C/C(=O)OCC(=O)NCC2CCCCC2)cc1 | -3 | 4 | -10 | 9 | 0.6 | 5604 | 6
NS(=O)(=O)OCCCc1ccccc1 | -12 | 1 | 3 | 0 | 4.5 | 2831 | -2
CCOc1ccc(Cl)cc1S(=O)(=O)N1CCC(C(=O)NCc2ccccn2)CC1 | -18 | -4 | -5 | 11 | 0.8 | 4028 | 9
Cc1cc(NC(=O)CSc2nnc(COc3ccccc3)n2Cc2ccco2)no1 | -21 | 14 | 4 | -1 | 8.3 | 12640 | -15
O=Cc1c(NCCc2cccc(F)c2)c2ccccc2[nH]c1=O | 7 | 7 | 11 | 17 | 4.7 | . | 2
Cc1nc(N2CCNCC2)c2c3c(sc2n1)CCCC3 | -6 | 5 | -2 | 10 | 3.0 | . | 7
Cn1ncc([N+](=O)[O-])c1C(=O)NC1CCCCCC1 | -25 | 12 | -4 | 6 | 2.6 | 4953 | 1
